# Screening results: PubChem BioAssay, Broad Institute
# FGF22 binding: shifts melting point of recombinant human FGF22. 1.5% of 340,000 active. AID 651658. Q9HCT0. calls only at 9.99 µM. recombinant FGF22 thermal shift, SYPRO orange fluorescence; percent of sucrose octasulfate shift, DMSO zero;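 active means melting point raised past a set limit in the mean and every replicate; three in four hits are not shown here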
# Target sequence (Q9HCT0 whole entry, looked up): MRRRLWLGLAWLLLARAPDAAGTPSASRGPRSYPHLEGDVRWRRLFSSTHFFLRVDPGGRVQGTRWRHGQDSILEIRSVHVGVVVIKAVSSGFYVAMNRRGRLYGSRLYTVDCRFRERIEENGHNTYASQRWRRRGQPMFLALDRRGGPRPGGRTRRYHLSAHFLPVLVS
# rRNA inh HTS: selective bacterial rRNA inhibition in E. coli. E. coli WT GFP vs humanized-ribosome RFP mutants, fluorescence, 24 h; hits give low values; DMSO median 0, no signal -100. GFP signal change (wild-type ribosome), % (concentration not given with the values). 1.6% of 350,000 active. AID 720706;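 active means significant combined selectivity score with lowered wild-type GFP, culture density cut under 30%, mutant RFP and density less affected; inactive means any of these conditions unmet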; further: one replicate is shown; some compounds called inactive have numbers as strong as hits
# rRNA inh HTS OD600: also measured in rRNA inh HTS; calls as there; OD600 change, %; measured here: OD600 growth;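 optical density of the mix in the first replicate; 0 = DMSO median and -100 = no signal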
# rRNA inh HTS RFP: second read-out of rRNA inh HTS, no call of its own (marks repeat the call); RFP signal change, %; measured here: RFP humanized mutant strains;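 first replicate; 0 = DMSO median and -100 = no signal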
# * hit, by the source's call; i = inactive. Some of the compounds tested. The share of hits here may be higher or lower than overall.
SMILES,FGF22 binding,rRNA inh HTS,rRNA inh HTS OD600,rRNA inh HTS RFP
C[C@H]1CCCCO[C@@H](CN(C)C)[C@@H](C)CN([C@@H](C)CO)C(=O)c2cc(NC(=O)c3ccncc3)ccc2O1,i,3,4,-1.7
O=S(=O)(c1ccc(F)cc1)N1CCCCN2[C@@H](CO)[C@H](c3ccc(-c4ccccc4)cc3)[C@@H]2C1,i,-5,0,2.5
C[C@@H]1CN([C@H](C)CO)C(=O)c2cc(C#Cc3ccc(F)cc3)cnc2O[C@@H]1CN(C)Cc1ccccn1,i,3,3,-1.0
C[C@H]1CN([C@@H](C)CO)C(=O)c2cccc(NC(=O)C3CC3)c2O[C@@H]1CN(C)Cc1ccc(-c2ccccc2)cc1,i,2,-1,-0.2
CCC(=O)Nc1ccc2c(c1)C(=O)N(C)[C@@H]1CC[C@H](CC(=O)N[C@@H](C)c3ccccc3)O[C@H]1CO2,i,-2,4,-0.1
O=C(c1ccccc1F)N1CC[C@@H]2[C@H]1c1cc(-c3ccc(F)cc3)ccc1N[C@@H]2CO,i,-44,-71,-1.8
COc1ccccc1CNC(=O)C[C@H]1C[C@@H]2c3cc(NC(=O)C4CCC4)ccc3O[C@@H]2[C@@H](CO)O1,i,-3,-10,1.2
CC(C)C#Cc1ccc2c(c1)O[C@H](CN(C)C(=O)Nc1ccccc1)[C@@H](C)CN([C@H](C)CO)S2(=O)=O,i,-2,-22,4.2
COc1ccc(NC(=O)Nc2ccc3c(c2)[C@@H]2C[C@@H](CC(=O)N(C)C)O[C@@H](CO)[C@@H]2O3)cc1,i,-2,0,-4.0
CCC(=O)N1[C@@H](CO)[C@@H]2c3ccccc3N(S(=O)(=O)c3ccccc3)C[C@@H]21,i,1,0,-0.3
CC(=O)N[C@H]1CC[C@@H](CCNC(=O)Nc2ccc(C(F)(F)F)cc2)O[C@@H]1CO,i,-61,-73,-24
CCC(=O)N1CCCCN2[C@H](CO)[C@H](c3ccc(C#CCOC)cc3)[C@H]2C1,i,3,0,3.1
Cc1ccc(S(=O)(=O)N(C)C[C@@H]2OCCCC[C@@H](C)Oc3ccc(NC(=O)Nc4ccc(F)cc4)cc3C(=O)N([C@H](C)CO)C[C@@H]2C)cc1,i,5,8,-3.0
Cc1nn(C)cc1NC(=O)C[C@H]1CC[C@@H]2[C@@H](COc3ccc(NC(=O)Nc4cccc(Cl)c4)cc3C(=O)N2C)O1,i,-24,-22,7.7
COc1ccc(S(=O)(=O)Nc2ccc3c(c2)C(=O)N([C@@H](C)CO)C[C@H](C)[C@H](CN(C)CC2CCCCC2)OCCCC[C@@H](C)O3)cc1,i,8,-14,6.8
C[C@@H]1CCCCO[C@H](CN(C)S(=O)(=O)c2cccs2)[C@H](C)CN([C@@H](C)CO)C(=O)c2cc(NC(=O)C3CCCCC3)ccc2O1,i,-4,-7,-2.3
CNC[C@@H]1OCCCC[C@H](C)Oc2ccc(NC(=O)Nc3ccccc3)cc2C(=O)N([C@@H](C)CO)C[C@@H]1C,i,1,4,-0.5
C/C=C/c1cnc2c(c1)C(=O)N([C@@H](C)CO)C[C@@H](C)[C@@H](CN(C)C(=O)Cc1ccccc1)O2,i,-1,6,0.7
C[C@@H]1CN([C@H](C)CO)C(=O)c2cc(NS(=O)(=O)c3ccc(Cl)cc3)ccc2O[C@H]1CN(C)S(=O)(=O)c1ccc(F)cc1,i,-4,-11,0.7
CN(C)C(=O)c1ccc(-c2ccc3c(c2)[C@@H]2[C@@H](CCN2C(=O)c2ccccn2)[C@@H](CO)N3)cc1,i,4,11,-2.9

# Next section
SMILES,FGF22 binding,rRNA inh HTS,rRNA inh HTS OD600,rRNA inh HTS RFP
Cc1ccc(S(=O)(=O)Nc2ccc3c(c2)C(=O)N([C@@H](C)CO)C[C@H](C)[C@H](CN(C)Cc2ccccc2)OCCCC[C@@H](C)O3)cc1,i,10,-8,17
COC(=O)c1cc2c(c3c4cc(OC)ccc4n(S(=O)(=O)c4cccc(C)c4)c13)C(=O)N(C)C2,i,-3,-2,7.9
Cn1cnc(S(=O)(=O)N2C[C@H](O)COC[C@H]3O[C@@H](CC(=O)NC4Cc5ccccc5C4)CC[C@@H]32)c1,i,4,10,0.2
O=C(C[C@@H]1C[C@@H]2c3cc(NC(=O)Nc4ccc(C(F)(F)F)cc4)ccc3O[C@@H]2[C@@H](CO)O1)NC1CCCCC1,i,-4,5,-1.7
Cc1noc(C)c1S(=O)(=O)Nc1ccc2c(c1)C(=O)N([C@@H](C)CO)C[C@@H](C)[C@H](CN(C)S(=O)(=O)c1ccccc1)O2,i,2,-3,1.8
COc1cccc(-c2ccc3c(c2)O[C@@H](CN(C)C(=O)c2ccccc2F)[C@@H](C)CN([C@@H](C)CO)S3(=O)=O)c1,i,-2,-10,1.8
CCCC(=O)Nc1ccc2c(c1)C(=O)N(C)[C@@H]1CC[C@H](CC(=O)NCC3CCCCC3)O[C@@H]1CO2,i,-4,-7,1.1
COCC#Cc1ccc2c(c1)O[C@@H](CN(C)S(=O)(=O)c1ccc(F)cc1)[C@H](C)CN([C@H](C)CO)S2(=O)=O,i,-1,-16,-1.6
CCC(=O)N(C)C[C@H]1Oc2cc(C#CC3CCCC3)ccc2S(=O)(=O)N([C@H](C)CO)C[C@H]1C,i,-7,-37,17
Cc1noc(C)c1S(=O)(=O)N(C)C[C@H]1Oc2ccc(NS(C)(=O)=O)cc2CC(=O)N([C@H](C)CO)C[C@H]1C,i,-2,2,2.0
CCC(=O)N(C)C[C@@H]1Oc2ncc(-c3ccc(C(=O)N(C)C)cc3)cc2C(=O)N([C@@H](C)CO)C[C@H]1C,i,3,-5,-5.8
COc1ccc(C(=O)Nc2ccc3c(c2)C(=O)N(C)[C@@H]2CC[C@H](CC(=O)NCC4CC4)O[C@H]2CO3)cc1,i,2,-2,-0.7
COC(=O)[C@]12C[C@H](CC(=O)NCc3cccc(C(F)(F)F)c3)C(=O)N(Cc3ccc4c(c3)OCO4)C1=C[C@H](C(C)(C)C)O[C@@H]2C,i,24,-3,6.6
CO[C@H](CN(C)Cc1ccc(-c2ccccn2)cc1)[C@@H](C)CN(C(=O)Nc1ccc(F)cc1)[C@H](C)CO,i,-6,-2,-3.8
C[C@@H]1CCCCO[C@@H](CN(C)S(=O)(=O)c2ccc(F)cc2)[C@H](C)CN([C@@H](C)CO)C(=O)c2cc(NC(=O)Nc3cccc4ccccc34)ccc2O1,i,1,8,0.8
CC(=O)N(C)C[C@H]1[C@H](c2ccc(-c3ccccc3F)cc2)[C@@H](CO)N1C(C)=O,i,0,-2,0.9
COc1ccc(NC(=O)N(C)C[C@@H]2Oc3c(NC(=O)Nc4ccc(F)cc4)cccc3C(=O)N([C@H](C)CO)C[C@@H]2C)cc1,i,-5,-1,-0.2
C[C@@H]1CCCCO[C@H](CN(C)C(=O)NC2CCCCC2)[C@H](C)CN([C@H](C)CO)C(=O)c2cc(NC(=O)Nc3ccc(F)cc3)ccc2O1,i,1,7,0.9
COc1ccccc1-c1cnc2c(c1)C(=O)N([C@@H](C)CO)C[C@@H](C)[C@@H](CN(C)Cc1ccncc1)O2,i,-5,-1,-0.4
C/C=C/c1cnc2c(c1)C(=O)N([C@H](C)CO)C[C@H](C)[C@H](CN(C)C(=O)Nc1ccc(OC)cc1)O2,i,1,2,-3.0

# Another view of 9 compounds above:
# Each structure is followed by: FGF22 binding | rRNA inh HTS | rRNA inh HTS OD600 | rRNA inh HTS RFP
- COc1ccc(C(=O)Nc2ccc3c(c2)C(=O)N(C)[C@@H]2CC[C@H](CC(=O)NCC4CC4)O[C@H]2CO3)cc1
 : i | 2 | -2 | -0.7
- COC(=O)[C@]12C[C@H](CC(=O)NCc3cccc(C(F)(F)F)c3)C(=O)N(Cc3ccc4c(c3)OCO4)C1=C[C@H](C(C)(C)C)O[C@@H]2C
 : i | 24 | -3 | 6.6
- CO[C@H](CN(C)Cc1ccc(-c2ccccn2)cc1)[C@@H](C)CN(C(=O)Nc1ccc(F)cc1)[C@H](C)CO
 : i | -6 | -2 | -3.8
- C[C@@H]1CCCCO[C@@H](CN(C)S(=O)(=O)c2ccc(F)cc2)[C@H](C)CN([C@@H](C)CO)C(=O)c2cc(NC(=O)Nc3cccc4ccccc34)ccc2O1
 : i | 1 | 8 | 0.8
- CC(=O)N(C)C[C@H]1[C@H](c2ccc(-c3ccccc3F)cc2)[C@@H](CO)N1C(C)=O
 : i | 0 | -2 | 0.9
- COc1ccc(NC(=O)N(C)C[C@@H]2Oc3c(NC(=O)Nc4ccc(F)cc4)cccc3C(=O)N([C@H](C)CO)C[C@@H]2C)cc1
 : i | -5 | -1 | -0.2
- C[C@@H]1CCCCO[C@H](CN(C)C(=O)NC2CCCCC2)[C@H](C)CN([C@H](C)CO)C(=O)c2cc(NC(=O)Nc3ccc(F)cc3)ccc2O1
 : i | 1 | 7 | 0.9
- COc1ccccc1-c1cnc2c(c1)C(=O)N([C@@H](C)CO)C[C@@H](C)[C@@H](CN(C)Cc1ccncc1)O2
 : i | -5 | -1 | -0.4
- C/C=C/c1cnc2c(c1)C(=O)N([C@H](C)CO)C[C@H](C)[C@H](CN(C)C(=O)Nc1ccc(OC)cc1)O2
 : i | 1 | 2 | -3.0

# (further entries)
SMILES,FGF22 binding,rRNA inh HTS,rRNA inh HTS OD600,rRNA inh HTS RFP
C[C@H]1CN([C@@H](C)CO)C(=O)c2cccc(NS(=O)(=O)c3cccs3)c2O[C@H]1CN(C)Cc1ccccc1,i,1,2,-0.1
CCS(=O)(=O)Nc1ccc2c(c1)C(=O)N(C)[C@H]1CC[C@H](CC(=O)NC3CCCCC3)O[C@H]1CO2,i,0,8,-0.1
O=C(Cc1ccccn1)NCC[C@@H]1CC[C@@H](NC(=O)c2ccccc2F)[C@H](CO)O1,i,3,0,1.2
CCCNC(=O)C[C@H]1C[C@@H]2c3cc(NC(=O)Nc4ccc(F)cc4)ccc3O[C@@H]2[C@@H](CO)O1,i,2,14,0.7
O=C(C[C@@H]1CC[C@H]2[C@@H](COC[C@H](O)CN2Cc2cc(F)cc(F)c2)O1)NCc1cccc(F)c1,i,-4,-3,-3.8
COc1ccc(-c2ccc3c(c2)[C@H]2[C@H](CCN2C(=O)C2CC2)[C@H](CO)N3C)cc1,i,0,-33,3.7
Cc1ccc(S(=O)(=O)N(C)C[C@H]2Oc3cc(C#CC4CCCC4)ccc3S(=O)(=O)N([C@H](C)CO)C[C@@H]2C)cc1,i,5,8,-0.2
C[C@H](CO)N1C[C@H](C)[C@H](CN(C)CC2CC2)Oc2ccc(NC(=O)Cc3ccccc3)cc2CC1=O,i,2,12,0.2
COc1ccc(NC(=O)N[C@@H]2CC[C@H](CCNC(=O)c3ccccc3F)O[C@H]2CO)cc1,i,-3,-1,1.2
O=S(=O)(N[C@@H]1CC[C@H](CCn2cc(-c3cccnc3)nn2)O[C@H]1CO)c1ccccc1,i,6,10,-0.3
C[C@@H]1CN([C@H](C)CO)C(=O)c2cccc(NC(=O)Nc3ccc(F)cc3)c2O[C@H]1CN(C)Cc1ccc(Cl)c(Cl)c1,i,-1,0,1.5
Cc1ccc(S(=O)(=O)Nc2ccc3c(c2)C(=O)N([C@H](C)CO)C[C@H](C)[C@H](CN(C)Cc2ccc(C(=O)Nc4ccccc4N)cc2)O3)cc1,i,3,2,1.5
CC=Cc1ccc2n(c1=O)C[C@H]1[C@H](CO)[C@@H](C(=O)NCCC)N(Cc3cocn3)[C@@H]21 (mixture of isomers),i,3,11,-1.4
Cc1noc(C)c1NC(=O)N[C@H]1CC[C@@H](CC(=O)NCc2ccc(Cl)c(Cl)c2)O[C@H]1CO,i,-2,-3,-0.3
COc1ccccc1-c1cnc2c(c1)C(=O)N([C@@H](C)CO)C[C@H](C)[C@@H](CN(C)C(=O)CC1CC1)O2,i,-4,-3,1.8
O=C(C[C@H]1C[C@@H]2c3cc(NC(=O)CC4CC4)ccc3O[C@@H]2[C@H](CO)O1)NCc1ccccn1,i,3,11,-1.8
CCCC(=O)Nc1ccc2c(c1)C(=O)N(C)C[C@@H](OC)[C@@H](C)CN(CC1CCCC1)[C@H](C)CO2,i,-2,1,-1.6
Cc1noc(C)c1NC(=O)N(C)C[C@H]1Oc2ccc(NC(=O)Nc3cccc4ccccc34)cc2CC(=O)N([C@H](C)CO)C[C@@H]1C,i,-2,-6,-1.0
C[C@@H]1CN([C@@H](C)CO)C(=O)Cc2cc(NC(=O)C3CCCCC3)ccc2O[C@H]1CN(C)C(=O)Nc1ccc2c(c1)OCO2,i,-1,3,-0.7
CCOC(=O)[C@@H](C)N1[C@@H](C)[C@H](c2ccccc2)Oc2ccc(Cl)cc2S1(=O)=O,i,-4,-1,0.0

# Going on with the list:
Compound | FGF22 binding | rRNA inh HTS | rRNA inh HTS OD600 | rRNA inh HTS RFP
C[C@@H]1CN([C@@H](C)CO)C(=O)Cc2cc(NS(=O)(=O)c3ccc(Cl)cc3)ccc2O[C@@H]1CN(C)C(=O)Nc1ccccc1 | i | 3 | -9 | -1.8
Cc1cccc(-c2ccc([C@@H]3[C@@H](CO)N4CCCCN(C(=O)c5cccnc5)C[C@H]34)cc2)c1 | i | 4 | -15 | 6.6
CCCNC(=O)C[C@H]1CC[C@H]2[C@@H](COC[C@@H](O)CN2Cc2cccc(F)c2)O1 | i | 2 | -4 | -2.2
COCC#Cc1ccc2c(c1)O[C@@H](CN(C)CC1CCOCC1)[C@@H](C)CN([C@@H](C)CO)S2(=O)=O | i | 8 | 7 | -2.6
CCCC#Cc1cnc2c(c1)C(=O)N([C@H](C)CO)C[C@H](C)[C@@H](CN(C)Cc1ccc(F)cc1)O2 | i | 3 | -14 | 1.8
